Source: PubChem BioAssay
rRNA inh HTS: selective bacterial rRNA inhibition in E. coli; E. coli WT GFP vs humanized-ribosome RFP mutants, fluorescence, 24 h; stronger effect = lower value; DMSO median 0, no signal -100; actives 1.6% (n = 350,000); GFP signal change (wild-type ribosome), % (concentration not given with the values);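 active = significant combined selectivity score with lowered wild-type GFP, culture density cut under 30%, mutant RFP and density less affected; inactive = any of these conditions unmet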; also: one replicate is shown; some compounds called inactive have numbers as strong as hits
AF4-AF9 inh: blocks AF4 peptide binding to human AF9; P42568; AlphaScreen, biotin-AF4 peptide binding to FLAG-AF9; inhibition, % at 10 µM; actives 0.47% (n = 350,000);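 active = every replicate reaching a set inhibition limit, whatever the replicate mean, cut at about 25% in these data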;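 also: 0% = plate neutral control median and 100% = total signal loss; the record names both 10 and 1 µM as test concentration; the first replicate is given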
Target sequence (P42568 whole entry, looked up): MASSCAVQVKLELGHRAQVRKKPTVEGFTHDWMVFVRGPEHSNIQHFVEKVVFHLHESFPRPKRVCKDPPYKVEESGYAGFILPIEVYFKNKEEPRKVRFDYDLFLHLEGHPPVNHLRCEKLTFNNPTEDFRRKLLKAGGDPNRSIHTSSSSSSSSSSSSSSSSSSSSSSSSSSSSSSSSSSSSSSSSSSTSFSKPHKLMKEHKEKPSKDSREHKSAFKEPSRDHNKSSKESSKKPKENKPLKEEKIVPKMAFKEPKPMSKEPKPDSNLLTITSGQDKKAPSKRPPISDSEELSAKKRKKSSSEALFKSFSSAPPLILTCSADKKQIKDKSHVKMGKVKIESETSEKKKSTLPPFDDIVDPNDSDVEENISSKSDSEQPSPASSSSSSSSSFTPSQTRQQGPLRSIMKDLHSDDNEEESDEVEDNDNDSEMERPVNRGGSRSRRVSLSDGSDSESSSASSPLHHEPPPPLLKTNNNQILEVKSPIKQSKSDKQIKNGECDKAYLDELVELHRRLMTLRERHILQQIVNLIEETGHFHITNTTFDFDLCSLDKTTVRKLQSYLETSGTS
FGF22 binding: FGF22 (human) thermal shift binding. Q9HCT0. recombinant FGF22 thermal shift, SYPRO orange fluorescence; percent of sucrose octasulfate shift, DMSO zero. calls only at 9.99 µM. actives 1.5% (n = 340,000);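 active = melting point raised past a set limit in the mean and every replicate; three in four hits are not shown here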
Target sequence (Q9HCT0 whole entry, looked up): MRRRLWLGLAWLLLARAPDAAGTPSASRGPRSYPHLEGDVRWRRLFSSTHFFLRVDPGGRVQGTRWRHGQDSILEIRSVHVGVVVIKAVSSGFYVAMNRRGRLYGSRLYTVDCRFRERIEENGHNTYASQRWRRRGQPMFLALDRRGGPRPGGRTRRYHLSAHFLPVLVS
rRNA inh HTS OD600: also measured in rRNA inh HTS; calls as there; OD600 change, %; measured here: OD600 growth;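 optical density of the mix in the first replicate; 0 = DMSO median and -100 = no signal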
rRNA inh HTS RFP: also measured in rRNA inh HTS; calls as there; RFP signal change, %; measured here: RFP humanized mutant strains;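 first replicate; 0 = DMSO median and -100 = no signal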
The depositor's hits bear a star; i = inactive; x = not tested or not shown; & = joins results of further samples.

SMILES	rRNA inh HTS	rRNA inh HTS OD600	rRNA inh HTS RFP	AF4-AF9 inh	FGF22 binding
CO[C@H]1CC[C@@H]2CCOc3c(C#N)cccc3C(=O)N(C)C[C@@H](C)C(=O)N(C)C[C@H]1O2	2.4	17.9	-2.1	-2.4	i
C[C@H]1CCCCO[C@@H](CN(C)C(=O)Nc2ccc3c(c2)OCO3)[C@@H](C)CN([C@@H](C)CO)C(=O)c2cc(N(C)C)ccc2O1	-1.3	-5.9	-1.2	-12.7	i
COc1ccc(S(=O)(=O)N2CCOCC2)cc1NC(=O)CCCSc1ccccc1	-2.2	-1.0	-2.8	-1.5	i
CO[C@@H]1CN(C)C(=O)c2cc(NS(C)(=O)=O)ccc2OC[C@H](C)N(Cc2nccs2)C[C@@H]1C	-0.8	-0.7	-2.2	-1.8	i
CCOc1ccc(NC(=O)CN(C)C(=O)Cc2ccc3c(c2)OCCO3)cc1OCC	10.5	15.2	-0.9	-0.3	i
CC(C)NC(=O)N(C)C[C@H]1Oc2cc(C#CCN(C)C)ccc2S(=O)(=O)N([C@@H](C)CO)C[C@@H]1C	4.3	2.2	1.4	-1.7	i
C[C@H](CO)N1C[C@H](C)[C@@H](CN(C)C(=O)Nc2ccc3c(c2)OCO3)Oc2ccc(NC(=O)c3ccncc3)cc2CC1=O	-2.7	-8.0	-1.1	-1.6	i
COCC(=O)N(C)C[C@@H]1Oc2ncc(C3=CCCC3)cc2C(=O)N([C@H](C)CO)C[C@@H]1C	4.7	8.6	-0.2	-1.7	i
COC(=O)C[C@H]1C[C@H]2c3cc(NS(=O)(=O)c4cccc(OC)c4)ccc3O[C@H]2[C@@H](CO)O1	-1.6&-3.6	-4.0&4.3	4.1&-2.8	0.8&-2.4	i
COc1ccc(OC)c(CN2C(=O)c3ccccc3C2c2nnnn2-c2ccc3c(c2)OCCO3)c1 (centres undefined)	-16.6	-6.6	9.3	5.4	i
Cc1cc(C(=O)Nc2cccc3c2O[C@H](CN(C)C(=O)Nc2ccc4c(c2)OCO4)[C@H](C)CN([C@@H](C)CO)C3=O)n(C)n1	-2.2	-9.4	-0.1	6.0	i
COCC(=O)N(C)C[C@@H]1Oc2ncc(C#Cc3ccc(F)cc3)cc2C(=O)N([C@@H](C)CO)C[C@H]1C	3.5	2.3	3.7	0.0	i
COc1cccc(C=NN(C)c2c([N+](=O)[O-])cc(C(F)(F)F)cc2[N+](=O)[O-])c1O	6.0	-1.5	0.7	0.7	i
COc1cc2ccc(C(=O)O)cc2cc1OC	1.3	3.3	0.9	-2.1	i
CO[C@H](CN(C)C(=O)C1CCOCC1)[C@@H](C)CN([C@@H](C)CO)S(=O)(=O)c1ccccc1	4.7	9.6	0.4	-11.0	i
OC(c1ccc(F)cc1)c1nc(-c2cnc3ccccc3c2)cs1 (centres undefined)	-45.5	-70.2	-9.0	-4.7	i
CN1C(=O)c2cc(NC(=O)c3cc(F)cc(F)c3)ccc2OC[C@@H]2O[C@H](CC(=O)O)CC[C@H]21	-1.7	-3.7	1.5	-1.4	i
COc1ccc(NC(=O)N(C)C[C@H]2Oc3ccc(NS(=O)(=O)c4cn(C)cn4)cc3CC(=O)N([C@H](C)CO)C[C@H]2C)cc1	4.6	9.3	-2.1	-2.9	i
CCNC(=O)C[C@@H]1CC[C@@H]2[C@@H](COc3ccc(NC(=O)Nc4ccccc4F)cc3C(=O)N2C)O1	3.0	5.8	6.0	-1.1	i
CCS(=O)(=O)N[C@H]1C=C[C@H](CC(=O)N2CCCCC2)O[C@H]1CO	-0.8	-0.7	1.1	-1.5	i
CCC(=O)Nc1ccc2c(c1)OC[C@@H](C)N(C(C)=O)C[C@@H](C)[C@H](OC)CN(C)C2=O	0.0	11.7	2.1	-1.5	i
C[C@@H]1CN([C@@H](C)CO)C(=O)c2ccccc2-c2ccccc2CO[C@@H]1CN(C)C(=O)[C@@H](Cc1ccccc1)N(C)C	-1.7	2.5	-0.6	-0.5	i
COc1ccc(S(=O)(=O)Nc2ccc3c(c2)C(=O)N([C@@H](C)CO)C[C@H](C)[C@@H](CN(C)Cc2ccc4c(c2)OCO4)OCCCC[C@@H](C)O3)cc1	8.9	-19.2	10.2	3.3	i
CC(C)CC#Cc1ccc2c(c1)O[C@H](CN(C)C(=O)c1ccccc1F)[C@H](C)CN([C@@H](C)CO)S2(=O)=O	0.9	1.8	2.3	-1.2	i
COc1ccc([C@H]2C[C@@H](O)[C@H](n3cc(-c4ccc(F)cc4)nn3)CN2CC2CCCCC2)cc1	4.1	6.9	-3.7	-2.2	x

Single entries from the entries so far.
Result for CO[C@H]1CC[C@@H]2CCOc3c(C#N)cccc3C(=O)N(C)C[C@@H](C)C(=O)N(C)C[C@H]1O2 under rRNA inh HTS: 2.4
Result for CO[C@@H]1CN(C)C(=O)c2cc(NS(C)(=O)=O)ccc2OC[C@H](C)N(Cc2nccs2)C[C@@H]1C under rRNA inh HTS OD600: -0.7
Result for COCC(=O)N(C)C[C@@H]1Oc2ncc(C#Cc3ccc(F)cc3)cc2C(=O)N([C@@H](C)CO)C[C@H]1C under AF4-AF9 inh: 0.0
Result for CO[C@H](CN(C)C(=O)C1CCOCC1)[C@@H](C)CN([C@@H](C)CO)S(=O)(=O)c1ccccc1 under rRNA inh HTS: 4.7
Result for CC(C)NC(=O)N(C)C[C@H]1Oc2cc(C#CCN(C)C)ccc2S(=O)(=O)N([C@@H](C)CO)C[C@@H]1C under rRNA inh HTS: 4.3
Result for CCNC(=O)C[C@@H]1CC[C@@H]2[C@@H](COc3ccc(NC(=O)Nc4ccccc4F)cc3C(=O)N2C)O1 under rRNA inh HTS: 3.0
Result for Cc1cc(C(=O)Nc2cccc3c2O[C@H](CN(C)C(=O)Nc2ccc4c(c2)OCO4)[C@H](C)CN([C@@H](C)CO)C3=O)n(C)n1 under rRNA inh HTS OD600: -9.4

(further entries)
SMILES	rRNA inh HTS	rRNA inh HTS OD600	rRNA inh HTS RFP	AF4-AF9 inh	FGF22 binding
O=C(Nc1cccc(Cl)c1)N[C@@H]1CC[C@@H](CCNC(=O)C2CC2)O[C@H]1CO	-4.1	-9.0	3.1	1.6	i
CCN(CC)C(=O)C1=C(C)N(Cc2ccccc2)C(=O)C(CC(=O)NCCN2CCOCC2)C1 (centres undefined)	5.0	8.1	1.5	-2.0	i
CCCCCCN1C[C@H](n2cc(-c3ccc(F)cc3)nn2)[C@@H](O)C[C@@H]1c1ccc(C)cc1	-1.9	2.0	2.2	0.8	i
Cc1ccc(S(=O)(=O)N(C)C[C@H]2OCCCC[C@H](C)Oc3ccc(NS(=O)(=O)c4ccccc4)cc3C(=O)N([C@@H](C)CO)C[C@H]2C)cc1	0.3	4.3	2.8	2.2	i
COC(=O)[C@@]1(Cc2ccc(F)cc2)[C@H]2c3cc(C(=O)N(C)C)n(Cc4cc(F)cc5c4OCOC5)c3C[C@H]2CN1C(=O)c1ccccc1	12.9	10.4	2.9	3.6	i
C[C@@H]1CN([C@@H](C)CO)C(=O)c2cccc(NC(=O)Nc3ccccc3)c2O[C@@H]1CN(C)Cc1ccc(C(=O)Nc2ccccc2N)cc1	-0.8	-2.9	-2.0	0.9	i
O=C1CCCCC(=O)[C@H](O)C[C@H](COCc2ccccc2)O1	11.2	10.3	0.3	-1.6	i
C[C@H]1CN([C@@H](C)CO)C(=O)Cc2cc(NC(=O)CCN3CCOCC3)ccc2O[C@@H]1CN(C)S(=O)(=O)c1ccc(F)cc1	3.9	4.2	-1.3	-0.3	i
C[C@@H]1CCCCO[C@H](CN(C)S(=O)(=O)c2cn(C)cn2)[C@H](C)CN([C@@H](C)CO)C(=O)c2cc(NC(=O)C3CCCCC3)ccc2O1	-1.7	-6.3	1.1	0.8	i
CCCNC(=O)N1[C@H](C#N)[C@H](c2ccc(C#Cc3ccc(F)cc3)cc2)[C@@H]1CO	-7.6	-39.8	3.5	-17.9	i
CO[C@H]1CN(C)C(=O)c2cc(NS(=O)(=O)CC(F)(F)F)ccc2OC[C@@H](C)N(Cc2nccs2)C[C@H]1C	-2.1	-0.3	0.1	-0.2	i
Cc1ccc(S(=O)(=O)N2C[C@@H](O)COC[C@@H]3O[C@@H](CC(=O)NCc4ccc5c(c4)OCO5)CC[C@H]32)cc1	-5.2	-1.4	2.6	4.1	i
CO[C@@H]1CN(C)C(=O)c2cc(NC(=O)NC(C)C)ccc2OC[C@H](C)N(C(=O)CC2CC2)C[C@@H]1C	0.2	4.2	-2.5	-1.3	i
CC1=C(C(=O)N(C)C)CC(CC(=O)NCc2cccc3ccccc23)C(=O)N1Cc1ccc(F)cc1 (centres undefined)	4.4	5.2	4.7	-1.0	i
C[C@@H](O)C#Cc1ccc([C@H]2[C@@H](CO)N3CCCCN(CC4CCOCC4)C[C@@H]23)cc1	8.2	3.5	-2.2	1.8	i
CC(C)NC(=O)C1(C)CCCN1Cc1ccccc1 (centres undefined)	3.6	13.7	-0.6	0.2	i
O=C(c1cc(C2CC2)nn1-c1ccccc1)N1CCN(Cc2ccccc2)CC1	8.2	0.8	7.2	4.5	i
C[C@@H]1CN([C@H](C)CO)C(=O)c2cccc(NC(=O)NC3CCCCC3)c2O[C@H]1CN(C)S(=O)(=O)c1cccs1	-5.0	-11.1	-2.6	-0.9	i
CCC(=O)N(C)C[C@@H]1Oc2cc(-c3ccc(C)cc3)ccc2S(=O)(=O)N([C@H](C)CO)C[C@@H]1C	-2.0	-13.2	1.0	3.4	i
O=C(Nc1ccc(F)cc1)N1CCCCN2[C@H](CO)[C@H](c3ccc(-c4cccc(F)c4)cc3)[C@H]2C1	-58.7	-75.5	-16.5	5.5	i
COc1cc([N+](=O)[O-])c2nc(C=NNC(N)=S)ccc2c1	-8.3	9.4	2.8	-2.0	i
C[C@H](CO)N1C[C@H](C)[C@H](CN(C)Cc2ccc(-c3ccccc3)cc2)Oc2c(NS(=O)(=O)c3ccc(Cl)cc3)cccc2C1=O	3.5	7.5	0.4	0.0	i
C[C@@H]1CN([C@@H](C)CO)C(=O)c2cc(-c3ccccc3F)cnc2O[C@@H]1CN(C)C(=O)NC1CCCC1	-2.0	8.0	-1.7	-1.5	i
COc1ccc(NC(=O)N(C)C[C@H]2Oc3ncc(C#CCC(C)C)cc3C(=O)N([C@H](C)CO)C[C@H]2C)cc1	-1.0	-6.6	-0.5	-14.2	i
COc1ccc(NC(=O)Nc2ccc3c(c2)CC(=O)N([C@H](C)CO)C[C@H](C)[C@@H](CN(C)C)O3)cc1	-1.2	3.5	-2.4	2.0	i
COc1ccc2c3c([nH]c2c1)[C@H](CO)NCC31CCN(S(=O)(=O)c2cccs2)CC1	-3.4	-8.7	-0.2	0.9	i
C[C@H](CO)N1C[C@H](C)[C@H](CN(C)C(=O)C2CCCCC2)Oc2cc(C#CCN(C)C)ccc2S1(=O)=O	1.2	-10.5	-2.3	1.8	i
C[C@@H]1CCCCO[C@@H](CN(C)S(C)(=O)=O)[C@@H](C)CN([C@@H](C)CO)C(=O)c2cc(NC(=O)CCCN(C)C)ccc2O1	2.9	9.0	-2.2	-3.4	i
C[C@@H]1CN([C@@H](C)CO)C(=O)c2cccc(NC(=O)NC3CCCCC3)c2O[C@@H]1CN(C)C(=O)Nc1ccccc1	1.3	-0.1	1.2	2.5	i

Record cards, as listed above. Order of values: rRNA inh HTS	rRNA inh HTS OD600	rRNA inh HTS RFP	AF4-AF9 inh	FGF22 binding
`COc1ccc(NC(=O)Nc2ccc3c(c2)CC(=O)N([C@H](C)CO)C[C@H](C)[C@@H](CN(C)C)O3)cc1` across the screens: -1.2	3.5	-2.4	2.0	i
`C[C@@H]1CCCCO[C@@H](CN(C)S(C)(=O)=O)[C@@H](C)CN([C@@H](C)CO)C(=O)c2cc(NC(=O)CCCN(C)C)ccc2O1` across the screens: 2.9	9.0	-2.2	-3.4	i
`C[C@@H]1CCCCO[C@H](CN(C)S(=O)(=O)c2cn(C)cn2)[C@H](C)CN([C@@H](C)CO)C(=O)c2cc(NC(=O)C3CCCCC3)ccc2O1` across the screens: -1.7	-6.3	1.1	0.8	i

Only part of the results is shown; rates above refer to the full screens.
